Bioassay records deposited in PubChem BioAssay by Broad Institute.
A1 apoptosis 2: A1 inhibitors via caspase activation, primary screen, cell-based, luminescence, HTS, two replicates; caspase activation, % (test concentration not listed); 24,000 tested, under 10 active; AID 2465, 2010; MEF A1-2A-BIM cells, caspase-Glo luminescence, 3 h; percent of clofoctol response, DMSO zero; in the data active = caspase activation above about 5.9%;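 note: wells of about 30 µL received 50 nL stock; the first replicate is given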
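Material: A1-2A-BIM-expressing MEF cells. Buffer or medium: RPMI-1640 plus 10% FBS. Incubation: cells settled overnight, compound exposure 3 h at 37 °C, 5% CO2. Signal: Caspase-Glo 3/7 luminescence, 1 h at room temperature.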
Active calls of the source: *.

SMILES	A1 apoptosis 2
Cc1noc(C)c1S(=O)(=O)N(C)C[C@@H]1Oc2ccc(NC(=O)Cc3ccccc3)cc2CC(=O)N([C@@H](C)CO)C[C@H]1C	0.6
Cc1noc(C)c1S(=O)(=O)Nc1ccc2c(c1)C(=O)N([C@H](C)CO)C[C@@H](C)[C@@H](CN(C)Cc1ccncc1)OCCCC[C@H](C)O2	0.4
Cc1ccc(S(=O)(=O)Nc2ccc3c(c2)C(=O)N([C@H](C)CO)C[C@H](C)[C@H](CN(C)S(=O)(=O)c2ccccc2)OCCCC[C@H](C)O3)cc1	-0.3
Cc1ccc(S(=O)(=O)N(C)C[C@@H]2Oc3ccc(NC(=O)Nc4ccc(C(F)(F)F)cc4)cc3CC(=O)N([C@@H](C)CO)C[C@H]2C)cc1	-0.5
O=C(NO)c1cccc(C(=O)N/N=C/Cc2ccccc2)c1	-1.0
C[C@H](CO)N1C[C@H](C)[C@H](CN(C)C(=O)CCC(F)(F)F)OCCCC[C@H](C)Oc2ccc(NC(=O)C3CCCCC3)cc2C1=O	0.0
C[C@H](CO)N1C[C@H](C)[C@H](CN(C)C(=O)Nc2ccc3c(c2)OCO3)Oc2ccc(NC(=O)Cn3cnnn3)cc2C1=O	0.8
C[C@H]1CN([C@@H](C)CO)C(=O)c2cc(NC(=O)C3CC3)ccc2O[C@@H]1CN(C)C	1.4
C[C@@H]1CN([C@@H](C)CO)C(=O)c2cc(NC(=O)CCN3CCOCC3)ccc2O[C@H]1CN(C)Cc1ccc2c(c1)OCO2	-0.6
Cc1ccc(S(=O)(=O)Nc2ccc3c(c2)C(=O)N([C@H](C)CO)C[C@H](C)[C@@H](CN(C)C(=O)CCCN(C)C)OCCCC[C@H](C)O3)cc1	-0.2
C[C@@H]1CN([C@@H](C)CO)C(=O)Cc2cc(N(C)C)ccc2O[C@H]1CN(C)S(=O)(=O)c1cccs1	2.0
C[C@H]1CN([C@@H](C)CO)C(=O)CCCn2cc(nn2)CO[C@@H]1CN(C)Cc1cccnc1	-0.5
O=C(N=NC=C1C=CN(O)C=C1)c1ccccc1O	-1.2
Cc1noc(C)c1NC(=O)Nc1ccc2c(c1)C(=O)N([C@H](C)CO)C[C@H](C)[C@H](CN(C)C(=O)NC(C)C)O2	0.4
Cc1noc(C)c1NC(=O)N(C)C[C@@H]1Oc2ccc(NS(=O)(=O)c3cn(C)cn3)cc2C(=O)N([C@@H](C)CO)C[C@@H]1C	0.3

A stretch from the list above, as a working copy:
SMILES	A1 apoptosis 2
Cc1noc(C)c1S(=O)(=O)N(C)C[C@@H]1Oc2ccc(NC(=O)Cc3ccccc3)cc2CC(=O)N([C@@H](C)CO)C[C@H]1C	0.6
Cc1noc(C)c1S(=O)(=O)Nc1ccc2c(c1)C(=O)N([C@H](C)CO)C[C@@H](C)[C@@H](CN(C)Cc1ccncc1)OCCCC[C@H](C)O2	0.4

(more compounds)
SMILES	A1 apoptosis 2
COc1ccc(/C=N/NC(=O)c2cccc(C(=O)NO)c2)cc1Br	-0.2
CC(=O)n1cc([C@@H]2C=C(C(=O)N3CCCCCCC3)O[C@H](OCCCCO)C2)c2ccccc21	0.9
COc1ccc(S(=O)(=O)N(C)C[C@H]2Oc3ccc(NC(=O)Nc4ccc5c(c4)OCO5)cc3CC(=O)N([C@H](C)CO)C[C@@H]2C)cc1	0.0
Cc1noc(C)c1NC(=O)N(C)C[C@H]1Oc2c(NC(=O)c3ccncc3)cccc2C(=O)N([C@H](C)CO)C[C@H]1C	-0.5
C[C@@H]1CCCCO[C@@H](CN(C)C)[C@H](C)CN([C@@H](C)CO)C(=O)c2cc(NC(=O)CCC(F)(F)F)ccc2O1	-0.1
COc1ccc(S(=O)(=O)Nc2ccc3c(c2)C(=O)N([C@@H](C)CO)C[C@@H](C)[C@H](CN(C)Cc2ccc(C(=O)O)cc2)O3)cc1	-0.1
COc1ccc(NC(=O)Nc2ccc3c(c2)CC(=O)N([C@@H](C)CO)C[C@H](C)[C@@H](CN(C)C(=O)Nc2ccc(F)cc2)O3)cc1	-1.0
C[C@H](CO)N1C[C@H](C)[C@H](CN(C)Cc2ccc(C(F)(F)F)cc2)Oc2ccc(NC(=O)Cc3ccccc3)cc2CC1=O	-0.1
Cc1ccc(S(=O)(=O)Nc2ccc3c(c2)C(=O)N([C@@H](C)CO)C[C@H](C)[C@@H](CN(C)Cc2ccc4c(c2)OCO4)O3)cc1	0.3
COc1ccc(CN(C)C[C@H]2Oc3ccc(NC(=O)Nc4cccc5ccccc45)cc3C(=O)N([C@@H](C)CO)C[C@H]2C)cc1	0.3
C[C@H]1CN([C@@H](C)CO)C(=O)Cc2cc(NC(=O)CCC(F)(F)F)ccc2O[C@H]1CN(C)CC1CCCCC1	-0.1
Cc1ccc(S(=O)(=O)N(C)C[C@@H]2Oc3ccc(NC(=O)Nc4cccc5ccccc45)cc3C(=O)N([C@@H](C)CO)C[C@H]2C)cc1	0.9
C[C@@H]1CN([C@@H](C)CO)C(=O)c2cc(NC(=O)Cn3cnnn3)ccc2O[C@@H]1CN(C)Cc1ccc(Cl)c(Cl)c1	0.7
C[C@H](CO)N1C[C@H](C)[C@@H](CN(C)S(=O)(=O)c2ccccc2)Oc2c(NS(=O)(=O)c3ccccc3)cccc2C1=O	1.0
C[C@H](CO)N1C[C@H](C)[C@H](CN(C)S(=O)(=O)c2cccs2)Oc2c(NS(C)(=O)=O)cccc2C1=O	-0.2

Pulled by compound from the entries so far:
SMILES	A1 apoptosis 2
COc1ccc(NC(=O)Nc2ccc3c(c2)CC(=O)N([C@@H](C)CO)C[C@H](C)[C@@H](CN(C)C(=O)Nc2ccc(F)cc2)O3)cc1	-1.0
Cc1noc(C)c1NC(=O)N(C)C[C@H]1Oc2c(NC(=O)c3ccncc3)cccc2C(=O)N([C@H](C)CO)C[C@H]1C	-0.5
C[C@H]1CN([C@@H](C)CO)C(=O)Cc2cc(NC(=O)CCC(F)(F)F)ccc2O[C@H]1CN(C)CC1CCCCC1	-0.1
CC(=O)n1cc([C@@H]2C=C(C(=O)N3CCCCCCC3)O[C@H](OCCCCO)C2)c2ccccc21	0.9
COc1ccc(/C=N/NC(=O)c2cccc(C(=O)NO)c2)cc1Br	-0.2
Cc1ccc(S(=O)(=O)N(C)C[C@@H]2Oc3ccc(NC(=O)Nc4cccc5ccccc45)cc3C(=O)N([C@@H](C)CO)C[C@H]2C)cc1	0.9

Next section:
SMILES	A1 apoptosis 2
Cc1noc(C)c1NC(=O)N(C)C[C@H]1OCCCC[C@@H](C)Oc2ccc(NS(=O)(=O)c3c(C)noc3C)cc2C(=O)N([C@H](C)CO)C[C@@H]1C	0.2
C[C@H](CO)N1C[C@H](C)[C@H](CN(C)Cc2ccc(C(F)(F)F)cc2)Oc2c(NC(=O)Nc3ccc(F)cc3)cccc2C1=O	-0.2
Cc1noc(C)c1S(=O)(=O)Nc1ccc2c(c1)C(=O)N([C@H](C)CO)C[C@H](C)[C@@H](CN(C)Cc1ccncc1)O2	-0.1
C[C@H](CO)N1C[C@H](C)[C@@H](CN(C)C)Oc2ccc(NC(=O)Nc3ccc(C(F)(F)F)cc3)cc2CC1=O	1.3
C[C@@H]1CN([C@H](C)CO)C(=O)c2cc(NS(=O)(=O)c3cn(C)cn3)ccc2O[C@@H](C)CCCCO[C@@H]1CN(C)S(=O)(=O)c1ccccc1	-0.1
CNC[C@H]1Oc2ccc(NC(=O)NC3CCCCC3)cc2C(=O)N([C@H](C)CO)C[C@@H]1C	-0.4
C[C@@H]1CN([C@@H](C)CO)C(=O)c2cc(N(C)C)ccc2O[C@H]1CN(C)S(C)(=O)=O	-1.3
C[C@H]1CCCCO[C@@H](CN(C)CC2CCCCC2)[C@@H](C)CN([C@@H](C)CO)C(=O)c2cc(NS(=O)(=O)c3cccs3)ccc2O1	0.8
COc1ccc(NC(=O)N(C)C[C@@H]2Oc3ccc(NS(C)(=O)=O)cc3C(=O)N([C@@H](C)CO)C[C@@H]2C)cc1	0.3
Cc1nnc(Sc2ccc(/C=N/NC(=O)CCCCC(=O)NO)o2)n1C	-0.5
C[C@@H]1CN([C@@H](C)CO)C(=O)Cc2cc(NC(=O)Cc3cn(C)c4ccccc34)ccc2O[C@@H]1CN(C)Cc1ccc(C(F)(F)F)cc1	-1.0
C[C@@H]1CN([C@H](C)CO)C(=O)Cc2cc(N(C)C)ccc2O[C@@H]1CN(C)S(=O)(=O)c1cn(C)cn1	-0.5
Cc1ccc(S(=O)(=O)Nc2ccc3c(c2)CC(=O)N([C@@H](C)CO)C[C@@H](C)[C@H](CN(C)Cc2ccccc2)O3)cc1	-0.4
COc1ccc(S(=O)(=O)Nc2cccc3c2O[C@H](CN(C)C(=O)Nc2ccccc2)[C@@H](C)CN([C@H](C)CO)C3=O)cc1	-0.2
C[C@@H]1CCCCO[C@H](CN(C)C(=O)CCC(F)(F)F)[C@H](C)CN([C@@H](C)CO)C(=O)c2cc(NC(=O)c3ccncc3)ccc2O1	0.7
C#CCNC(=O)C1=C[C@H](c2cn(C(C)=O)c3ccccc23)C[C@H](OCc2ccc(CO)cc2)O1	0.4
COc1ccc(NC(=O)N(C)C[C@H]2Oc3ccc(NS(=O)(=O)c4ccccc4)cc3C(=O)N([C@@H](C)CO)C[C@@H]2C)cc1	1.0
C[C@H]1CN([C@@H](C)CO)C(=O)c2cc(NS(=O)(=O)c3ccc(Cl)cc3)ccc2O[C@@H]1CN(C)Cc1ccc(C(=O)Nc2ccccc2N)cc1	1.9
CNC[C@@H]1Oc2c(NC(=O)c3ccncc3)cccc2C(=O)N([C@H](C)CO)C[C@H]1C	-1.5
C[C@H](CO)N1C[C@H](C)[C@H](CN(C)Cc2ccc(-c3ccccc3)cc2)Oc2ccc(NC(=O)CCCN(C)C)cc2CC1=O	-0.7
C[C@@H]1CN([C@@H](C)CO)C(=O)Cc2cc(N(C)C)ccc2O[C@H]1CN(C)Cc1ccc(C(=O)Nc2ccccc2N)cc1	-0.2
C[C@H]1CN([C@@H](C)CO)C(=O)c2cccc(NC(=O)c3nc4ccccc4s3)c2O[C@@H]1CN(C)S(=O)(=O)c1ccc(Cl)cc1	-1.4
COc1ccc(S(=O)(=O)Nc2ccc3c(c2)C(=O)N([C@@H](C)CO)C[C@H](C)[C@H](CN(C)S(=O)(=O)c2c(C)noc2C)O3)cc1	0.6
C[C@H]1CN([C@@H](C)CO)C(=O)Cc2cc(NC(=O)NC3CCCCC3)ccc2O[C@H]1CN(C)C(=O)Nc1ccc(F)cc1	-0.9
O=C(N/N=C/c1cc(I)cc(I)c1O)c1ccccn1	-0.1
Cc1noc(C)c1NC(=O)Nc1ccc2c(c1)CC(=O)N([C@H](C)CO)C[C@@H](C)[C@H](CN(C)S(=O)(=O)c1ccccc1)O2	0.2
COc1ccc(NC(=O)N(C)C[C@@H]2Oc3c(NC(=O)c4cnccn4)cccc3C(=O)N([C@H](C)CO)C[C@@H]2C)cc1	-0.2
COc1ccc(S(=O)(=O)Nc2ccc3c(c2)C(=O)N([C@H](C)CO)C[C@H](C)[C@H](CN(C)S(=O)(=O)c2ccc(F)cc2)OCCCC[C@@H](C)O3)cc1	1.1
C[C@@H]1CN([C@H](C)CO)C(=O)c2cccc(NC(=O)CCCCCC(=O)Nc3ccccc3N)c2O[C@H]1CN(C)Cc1ccc(Cl)c(Cl)c1	-2.0
CC(C)NC(=O)Nc1ccc2c(c1)C(=O)N([C@H](C)CO)C[C@@H](C)[C@@H](CN(C)S(=O)(=O)c1cn(C)cn1)OCCCC[C@H](C)O2	0.7
C[C@@H]1CN([C@H](C)CO)C(=O)Cc2cc(NS(C)(=O)=O)ccc2O[C@H]1CN(C)S(C)(=O)=O	-0.4
C[C@@H]1CCCCO[C@@H](CN(C)Cc2ccc(Cl)c(Cl)c2)[C@H](C)CN([C@@H](C)CO)C(=O)c2cc(NC(=O)C3CCCCC3)ccc2O1	0.1
C[C@H]1CN([C@@H](C)CO)C(=O)c2cc(NC(=O)Cn3cnnn3)ccc2O[C@@H]1CN(C)S(=O)(=O)c1ccc(F)cc1	1.3
C[C@@H]1CN([C@H](C)CO)C(=O)CCCn2cc(nn2)CO[C@H]1CN(C)C(=O)Nc1cccc(Oc2ccccn2)c1	-0.4
C[C@@H]1CN([C@H](C)CO)C(=O)c2cc(NC(=O)CCC(F)(F)F)ccc2O[C@@H](C)CCCCO[C@@H]1CN(C)C(=O)CCC(F)(F)F	-0.9
C[C@H]1CN([C@@H](C)CO)C(=O)c2cccc(NC(=O)c3ccncc3)c2O[C@H]1CN(C)S(=O)(=O)c1cccs1	-0.4
C[C@H](CO)N1C[C@H](C)[C@H](CN(C)Cc2ccc(Cl)c(Cl)c2)Oc2ccc(NC(=O)C3CC3)cc2CC1=O	-0.3
COc1ccc([Si](C)(C)[C@@H]2[C@@H](CC(=O)N3CCC[C@H]3CO)O[C@]3(C(=O)N(C)c4c(Br)cc(C)cc43)[C@H]2C)cc1	-0.5
C[C@H]1CN([C@@H](C)CO)C(=O)c2cccc(NS(C)(=O)=O)c2O[C@@H]1CN(C)Cc1ccncc1	-0.7
C[C@@H]1CCCCO[C@H](CN(C)C(=O)Nc2cccc3ccccc23)[C@@H](C)CN([C@H](C)CO)C(=O)c2cc(NC(=O)Nc3ccccc3)ccc2O1	0.9
COc1ccc(NC(=O)Nc2ccc3c(c2)C(=O)N([C@H](C)CO)C[C@@H](C)[C@H](CN(C)S(=O)(=O)c2ccc(Cl)cc2)O3)cc1	0.7
Cc1noc(C)c1NC(=O)N(C)C[C@H]1Oc2ccc(NC(=O)Nc3ccc(F)cc3)cc2C(=O)N([C@H](C)CO)C[C@H]1C	-0.1
COc1ccc(NC(=O)Nc2ccc3c(c2)C(=O)N([C@@H](C)CO)C[C@H](C)[C@H](CN(C)Cc2ccc4c(c2)OCO4)O3)cc1	-0.4

Some of the compounds tested; the hit share may differ from the screen's.
